HSV replic up = HSV replication enhancement; maximum fold increase; HSV replication augmentation in cells, fold increase; 220,000 tested, 0.005% active;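 active = peak rise of 1.5-fold or more in the series; inconclusive = self-fluorescent or not available for retest; tested in PC3 cells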;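 also: first round at 10 µM; read as green reporter fluorescence; hits show the peak of a series up to 25 µM; 1 = signal of infected wells without compound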
GALR2 ag = agonists of human galanin receptor 2 (GALR2); O43603; GALR2-expressing cells, agonist activation read-out; activation, %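 (tested at 5 µM)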; 140,000 tested, 0.48% active;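 active = above mean plus 3 SD of all compounds, about 5% in these data, not always enough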;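 also: 0% = vehicle buffer wells and 100% = reference agonist at full effect; tested in CHO reporter cells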
PKD1 kinase inh = PKD1 (human) kinase inhibition; Q15139; PKD1 kinase fluorescence polarization assay; inhibition, %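 (about 10 µM by stock and volumes)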; 200,000 tested, 0.056% active;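 active = inhibition of 50% or more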;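 also: controls were vehicle for no effect and a reference inhibitor for full effect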
Target sequence (Q15139 whole entry, looked up): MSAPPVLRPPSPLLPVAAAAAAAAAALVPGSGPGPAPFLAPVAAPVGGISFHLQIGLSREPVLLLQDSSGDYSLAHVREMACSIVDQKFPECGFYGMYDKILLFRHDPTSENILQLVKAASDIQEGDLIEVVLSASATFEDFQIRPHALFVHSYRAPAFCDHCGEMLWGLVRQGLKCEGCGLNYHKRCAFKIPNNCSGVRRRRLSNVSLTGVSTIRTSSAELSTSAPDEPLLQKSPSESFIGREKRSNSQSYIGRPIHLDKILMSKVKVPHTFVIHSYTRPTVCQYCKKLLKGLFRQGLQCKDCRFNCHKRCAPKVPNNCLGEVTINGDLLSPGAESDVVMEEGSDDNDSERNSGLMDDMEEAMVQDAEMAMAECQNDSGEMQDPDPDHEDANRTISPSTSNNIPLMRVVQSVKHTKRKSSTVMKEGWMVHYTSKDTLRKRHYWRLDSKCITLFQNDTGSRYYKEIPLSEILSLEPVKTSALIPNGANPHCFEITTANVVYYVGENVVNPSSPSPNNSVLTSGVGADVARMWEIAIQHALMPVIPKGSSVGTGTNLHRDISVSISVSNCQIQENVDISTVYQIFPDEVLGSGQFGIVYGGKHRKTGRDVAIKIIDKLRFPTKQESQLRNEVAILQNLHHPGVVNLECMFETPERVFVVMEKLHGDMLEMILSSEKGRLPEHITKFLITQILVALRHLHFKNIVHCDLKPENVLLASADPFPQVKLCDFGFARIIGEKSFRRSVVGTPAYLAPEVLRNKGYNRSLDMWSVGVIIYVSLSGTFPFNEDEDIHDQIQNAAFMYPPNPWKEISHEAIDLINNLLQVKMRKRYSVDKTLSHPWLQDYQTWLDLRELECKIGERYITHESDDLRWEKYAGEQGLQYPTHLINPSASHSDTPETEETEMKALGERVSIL
INS promoter inh = TRM-6 insulin promoter activity inhibition; TRM-6 cells (human fetal islet line), insulin promoter-eGFP reporter, imaging; reporter expression induced with tamoxifen; inhibition, % at 2 µM; 130,000 tested, 0.9% active;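 active = inhibition above the mean plus 3 SD, with well images judged a real hit on visual review, cut at about 60% in these data, passing the limit was not always enough; inconclusive = inhibition over the cutoff but images rejected on review; inactive = inhibition not above the cutoff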
RGS16-Gao = regulators of human RGS16-Galphao interaction | O15492+P09471 | bead-based flow cytometry RGS16-Galphao binding, fluorescence; actives lie on both sides | binding response (% of control), % at 10 µM | 220,000 tested, 0.38% active;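 active = below 25% or above 175%, edge rows of some plates excepted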;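 also: Galphao activated by GDP with aluminum fluoride before binding; 100% = wells without compound and 0% = beads without RGS; some results beyond the cut were filed as inactive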
INS promoter inh cell count = recorded beside INS promoter inh, whose call it bears; normalized cell count, %; measured here: cell count, toxicity; reference of the scale not given here;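 cells exposed to compound for 48 h; stained nuclei by imaging scaled within each plate; lower means fewer cells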
HSV replic up primary fold = further read-out of HSV replic up, marked with its call; fold increase; compound at 10 µM; measured here: primary screen fold increase 10 uM; tested in PC3 cells;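 GFP signal in the first replicate; 1 = infected wells without compound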
* marks the source's active call; other numbers are inactive results.

`O=C(CSc1nnc(CNc2ccc(F)cc2)n1CC1CCCO1)Nc1ccccc1` (stereo not drawn) gave HSV replic up inactive, GALR2 ag -3.0, PKD1 kinase inh -1.4, INS promoter inh -6.7, RGS16-Gao 101.6, INS promoter inh cell count 122.0 and HSV replic up primary fold 0.97.
`COc1cccc(C(=O)NCc2ccc(N3CCN(C(=O)OC(C)(C)C)CC3)cc2)c1` gave HSV replic up inactive, GALR2 ag -1.6, PKD1 kinase inh 2.0, INS promoter inh 16.1, RGS16-Gao 93.1, INS promoter inh cell count 117.8 and HSV replic up primary fold 0.8.
CN(CC(=O)Nc1ccccc1Sc1ccccc1)C1CCCCC1 was read as HSV replic up inconclusive, PKD1 kinase inh 3.8 and RGS16-Gao 101.0.
CCC(=O)Nc1ccc(NC(=O)/C=C/c2ccc(Cl)cc2)cc1 was read as HSV replic up inactive, GALR2 ag -1.1, PKD1 kinase inh -8.7, RGS16-Gao 99.8 and HSV replic up primary fold 1.08.
For CC(C)(C)c1ccc(-n2nc(C#N)c(Cl)cc2=O)cc1 the results were HSV replic up inactive, PKD1 kinase inh -9.8, RGS16-Gao 101.9 and HSV replic up primary fold 0.69.
For O=C(NCc1cccs1)C1CCC(CNS(=O)(=O)c2cccs2)CC1 (stereo not drawn) the results were HSV replic up inactive, GALR2 ag -1.1, PKD1 kinase inh 2.7, INS promoter inh -19.4, RGS16-Gao 105.4, INS promoter inh cell count 130.8 and HSV replic up primary fold 0.88.
COc1ccc(/C=C2\SC(=N)N(c3ccc(F)cc3)C2=O)cc1 was read as HSV replic up inactive, PKD1 kinase inh 3.3, RGS16-Gao 103.5 and HSV replic up primary fold 0.83.
For CS(=O)(=O)N1CCN(c2ccc(NC(=O)c3ccc(-c4ccc(Cl)cc4)o3)cc2)CC1 the results were HSV replic up inactive, GALR2 ag 2.7, PKD1 kinase inh 2.0, INS promoter inh -13.0, RGS16-Gao 94.5, INS promoter inh cell count 125.5 and HSV replic up primary fold 0.62.
Screening CCS(=O)(=O)C(C)(CCl)C(=O)Nc1ccc(C(=O)OC)cc1 (stereo not drawn) returned HSV replic up inactive, RGS16-Gao 100.9 and HSV replic up primary fold 0.9.
For COc1ccc(-c2ccc(C3C(C#N)=C(N)Oc4n[nH]c(C)c43)o2)cc1 (stereo not drawn) the results were HSV replic up inactive, GALR2 ag -2.6, PKD1 kinase inh -4.9, INS promoter inh 2.8, RGS16-Gao 101.5, INS promoter inh cell count 195.9 and HSV replic up primary fold 0.81.
Screening O=C(Nc1nnc(C23CC4CC(CC(C4)C2)C3)s1)c1ccco1 returned HSV replic up inactive, GALR2 ag -2.5, PKD1 kinase inh -5.9, INS promoter inh -16.7, RGS16-Gao 99.5, INS promoter inh cell count 114.7 and HSV replic up primary fold 0.74.
O=C(CCCn1c(=O)[nH]c2ccccc2c1=O)NC1CCCCCC1 was read as HSV replic up inactive, GALR2 ag -0.4, PKD1 kinase inh -11.2, RGS16-Gao 93.5 and HSV replic up primary fold 0.84.
COc1ccccc1NC(=O)CC(NC1CCCCC1)C(=O)O (stereo not drawn) was read as HSV replic up inactive, GALR2 ag -3.0, PKD1 kinase inh 12.4, INS promoter inh 21.4, RGS16-Gao 99.0, INS promoter inh cell count 73.2 and HSV replic up primary fold 1.1.
For Cc1sc(NC(=O)c2ccco2)c(C(c2cccnc2)N2CCN(C)CC2)c1C (stereo not drawn) the results were HSV replic up inactive, GALR2 ag -2.0, PKD1 kinase inh -8.0, INS promoter inh -4.7, RGS16-Gao 144.5, INS promoter inh cell count 132.0 and HSV replic up primary fold 1.26.
`O=C(Nc1cccc(Cl)c1)N(CCN1CCOCC1)Cc1ccccc1F` gave HSV replic up inactive, GALR2 ag -1.5, PKD1 kinase inh -1.1, INS promoter inh -17.2, RGS16-Gao 98.7, INS promoter inh cell count 155.8 and HSV replic up primary fold 0.96.
Screening CC(=C/C(=O)O)/C=C/c1ccc([N+](=O)[O-])cc1 returned HSV replic up inactive, GALR2 ag -1.6, PKD1 kinase inh 5.5, RGS16-Gao 100.3 and HSV replic up primary fold 1.12.
CCSc1nnc(NC(NC(C)=O)(C(F)(F)F)C(F)(F)F)s1 was read as HSV replic up inactive, GALR2 ag -3.6, PKD1 kinase inh -10.9, INS promoter inh 35.7, RGS16-Gao 105.7, INS promoter inh cell count 100.0 and HSV replic up primary fold 0.96.
For CCOC(=O)c1csc(-c2ccc(OC)c(OC)c2)n1 the results were HSV replic up inactive, PKD1 kinase inh -0.3, INS promoter inh 0.0, RGS16-Gao 110.1, INS promoter inh cell count 143.2 and HSV replic up primary fold 0.9.
`COc1ccc(NC(=O)CSc2nnc(-c3ccccc3C)n2N)cc1OC` gave HSV replic up inactive, GALR2 ag -1.6, PKD1 kinase inh -5.5, INS promoter inh 33.3, RGS16-Gao 91.4, INS promoter inh cell count 102.0 and HSV replic up primary fold 1.07.
CCCCCCC1CC(C)(C(=O)CNc2nncs2)OC1=O (stereo not drawn) was read as HSV replic up inactive, GALR2 ag -1.9, PKD1 kinase inh 3.4, INS promoter inh 35.7, RGS16-Gao 104.8, INS promoter inh cell count 127.2 and HSV replic up primary fold 1.05.
Screening COc1cccc(NC(=O)Cn2nnc(C(=O)Nc3ccccc3)c2N)c1 returned HSV replic up inactive, GALR2 ag -1.5, PKD1 kinase inh -2.1, INS promoter inh -9.7, RGS16-Gao 91.5, INS promoter inh cell count 67.7 and HSV replic up primary fold 0.75.
For CCN1C(=O)C2C(c3ccccc3F)NC(Cc3ccc(O)cc3)(C(=O)OC)C2C1=O (stereo not drawn) the results were HSV replic up inactive, GALR2 ag -0.8, PKD1 kinase inh 3.5, RGS16-Gao 98.0 and HSV replic up primary fold 1.08.
OC(COc1ccccc1)Cn1c2ccccc2c2ccccc21 (stereo not drawn) was read as HSV replic up inactive, GALR2 ag -1.1, PKD1 kinase inh -2.6, INS promoter inh -10.0, RGS16-Gao 107.4, INS promoter inh cell count 66.2 and HSV replic up primary fold 0.89.
For CCOc1ccc(C2=Cc3cc(OC)c(OC)cc3C(=C(Cl)Cl)O2)cc1 the results were HSV replic up inactive, GALR2 ag 6.1, PKD1 kinase inh 1.6, INS promoter inh -9.7, RGS16-Gao 87.9, INS promoter inh cell count 59.8 and HSV replic up primary fold 1.07.
CCCCOC(=O)C1Cc2ccccc2C(=O)O1 (stereo not drawn) was read as HSV replic up inactive, GALR2 ag -1.8, PKD1 kinase inh -1.2, INS promoter inh -13.5, RGS16-Gao 89.1, INS promoter inh cell count 105.4 and HSV replic up primary fold 0.83.
For O=C(CN1C2=NCCCN2c2ccccc21)c1ccc([N+](=O)[O-])cc1 the results were HSV replic up inactive, PKD1 kinase inh 7.3, RGS16-Gao 114.1 and HSV replic up primary fold 0.84.
For C/C(CCc1ccccc1)=N/NC(=O)C(=O)NC(C)c1ccccc1 (stereo not drawn) the results were HSV replic up inactive, PKD1 kinase inh 0.9, INS promoter inh 23.1, RGS16-Gao 94.1, INS promoter inh cell count 99.2 and HSV replic up primary fold 0.95.
O=C(Nc1ccc2nsnc2c1)C1CC1 was read as HSV replic up inactive, PKD1 kinase inh 2.3, INS promoter inh 14.3, RGS16-Gao 101.2, INS promoter inh cell count 123.7 and HSV replic up primary fold 0.77.
CCc1c(C)nc2c(OC)cccc2c1SCCC(=O)O was read as HSV replic up inactive, GALR2 ag 0.3, PKD1 kinase inh -7.3, RGS16-Gao 103.3 and HSV replic up primary fold 0.94.
Cc1ccc(CNc2nc(Cl)c(C#N)s2)cc1 was read as HSV replic up inactive, PKD1 kinase inh -4.2, RGS16-Gao 99.5 and HSV replic up primary fold 1.04.
`Cc1cccc(-n2nc3c([n+]2[O-])CCc2nonc2-3)c1C` gave HSV replic up inactive, GALR2 ag -0.4, PKD1 kinase inh 8.7, INS promoter inh 29.6, RGS16-Gao 110.0, INS promoter inh cell count 105.0 and HSV replic up primary fold 1.06.
CC(/C=N\N1CCN(c2ccc(Cl)cc2)CC1)=C\c1ccccc1 was read as HSV replic up inactive, GALR2 ag -4.6, PKD1 kinase inh -3.3, INS promoter inh 15.4, RGS16-Gao 108.4, INS promoter inh cell count 132.6 and HSV replic up primary fold 0.96.
Screening COc1ccc(CN(CC(=O)NC2CCCC2)C(=O)c2ccc(-c3ccccc3)[nH]2)cc1 returned HSV replic up inactive, PKD1 kinase inh -2.4, INS promoter inh -50.0, RGS16-Gao 111.2, INS promoter inh cell count 84.2 and HSV replic up primary fold 0.97.
For O=C(Cn1cnc2c(cnn2-c2ccc(F)cc2)c1=O)N1CCCc2ccccc21 the results were HSV replic up inactive, GALR2 ag -1.9, PKD1 kinase inh -9.8, INS promoter inh 14.8, RGS16-Gao 105.0, INS promoter inh cell count 79.5 and HSV replic up primary fold 0.97.
For CN(C)C(=O)c1c([N+](=O)[O-])ncn1C the results were HSV replic up inactive, GALR2 ag -1.7, PKD1 kinase inh -0.5, INS promoter inh 30.0, RGS16-Gao 134.8, INS promoter inh cell count 74.9 and HSV replic up primary fold 0.78.
CCOc1c(N2CCOCC2)c(=O)c1=O was read as HSV replic up inactive, RGS16-Gao 93.9 and HSV replic up primary fold 1.04.
For CCCCC(=O)Nc1ccc2c(c1)nc1n2CCSC1 the results were HSV replic up inactive, GALR2 ag -0.5, PKD1 kinase inh 0.4, RGS16-Gao 96.1 and HSV replic up primary fold 0.95.
CCS(=O)(=O)N1Cc2ccccc2CC1C(=O)OCC(=O)N(C(C)C)C(C)C (stereo not drawn) was read as HSV replic up inactive, PKD1 kinase inh -9.3, RGS16-Gao 101.5 and HSV replic up primary fold 0.96.
Cc1nc(N2CCCCC2)c2c(-c3cccs3)csc2n1 was read as HSV replic up inactive, PKD1 kinase inh -4.5, INS promoter inh -7.1, RGS16-Gao 101.4, INS promoter inh cell count 111.4 and HSV replic up primary fold 0.97.
O=C(NCCO)c1ccccc1O was read as HSV replic up inactive, GALR2 ag -1.9, PKD1 kinase inh -9.6, INS promoter inh -58.6, RGS16-Gao 100.3, INS promoter inh cell count 109.8 and HSV replic up primary fold 0.86.
Screening Cc1ccc(-c2csc3nnc(SCC(=O)Nc4cccc(C)n4)n23)cc1 returned GALR2 ag -0.3, PKD1 kinase inh -5.2 and RGS16-Gao 100.9.
CCn1c(=O)c([N+](=O)[O-])c(N2CCSCC2)c2ccccc21 was read as HSV replic up inactive, RGS16-Gao 80.6 and HSV replic up primary fold 1.06.
For CCN1CCN(C(=O)C(N)Cc2ccccc2)CC1 (stereo not drawn) the results were HSV replic up inactive, PKD1 kinase inh 3.3, RGS16-Gao 109.9 and HSV replic up primary fold 0.94.
COc1ccc(-c2nn3c(-c4cccc(C)c4)nnc3s2)cc1OC was read as HSV replic up inactive, GALR2 ag -1.1, PKD1 kinase inh 4.6, INS promoter inh 29.7, INS promoter inh cell count 133.8 and HSV replic up primary fold 0.77.
For CCOC(=O)N1CCN(C(=O)NC2CCCCC2)CC1 the results were HSV replic up inactive, GALR2 ag -1.0, PKD1 kinase inh -5.8, INS promoter inh -29.7, RGS16-Gao 100.4, INS promoter inh cell count 68.1 and HSV replic up primary fold 0.82.
For Cc1nnc(SCC(=O)OC2CC(C)CCC2C(C)C)[nH]c1=O (stereo not drawn) the results were HSV replic up inactive, GALR2 ag -0.6, PKD1 kinase inh 3.0, INS promoter inh -12.5, RGS16-Gao 103.0, INS promoter inh cell count 101.2 and HSV replic up primary fold 0.91.
`CCOC(=O)c1sc(NC(=O)CSc2nc(O)c(Cc3ccccc3)c(=O)[nH]2)nc1C` gave HSV replic up inactive, PKD1 kinase inh -0.9, RGS16-Gao 102.5 and HSV replic up primary fold 0.97.
For Nc1cc(C(F)(F)F)ccc1-n1cccc1 the results were HSV replic up inactive, PKD1 kinase inh 5.8, RGS16-Gao 100.3 and HSV replic up primary fold 1.17.
For Cc1ccc(C(=O)NCc2cccs2)cc1S(=O)(=O)N1CCCCC1 the results were HSV replic up inactive, GALR2 ag -0.4, PKD1 kinase inh 0.4, RGS16-Gao 104.2 and HSV replic up primary fold 0.95.
Screening CN(C)C(C(=O)Nc1cc(Cl)cc(Cl)c1)c1ccccc1 (stereo not drawn) returned HSV replic up inactive, PKD1 kinase inh 3.9, RGS16-Gao 103.0 and HSV replic up primary fold 0.86.

Bioassay records (PubChem BioAssay)

Rows are unselected; 1.3% or so of the library scored in one or more.
